# Screens deposited in PubChem BioAssay by Johns Hopkins Ion Channel Center.
# KCNQ2 inh: KCNQ2 channel blockers in CHO-K1 cells – cell-based, FluxOR thallium flux, B-score, primary screen (AID 2156) | 20 min; stronger effect = lower value; only compounds with negative scores are shown here; some inactives read as strong as hits | B-score at 10 µM | O88943 | 310,000 compounds, 1.1% hits;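 active means fluorescence ratio B-score at most minus 3 library SDs, with starting brightness B-score within 2 library SDs, cut at about -5.5 in these data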
# Target sequence (O88943 whole entry, looked up): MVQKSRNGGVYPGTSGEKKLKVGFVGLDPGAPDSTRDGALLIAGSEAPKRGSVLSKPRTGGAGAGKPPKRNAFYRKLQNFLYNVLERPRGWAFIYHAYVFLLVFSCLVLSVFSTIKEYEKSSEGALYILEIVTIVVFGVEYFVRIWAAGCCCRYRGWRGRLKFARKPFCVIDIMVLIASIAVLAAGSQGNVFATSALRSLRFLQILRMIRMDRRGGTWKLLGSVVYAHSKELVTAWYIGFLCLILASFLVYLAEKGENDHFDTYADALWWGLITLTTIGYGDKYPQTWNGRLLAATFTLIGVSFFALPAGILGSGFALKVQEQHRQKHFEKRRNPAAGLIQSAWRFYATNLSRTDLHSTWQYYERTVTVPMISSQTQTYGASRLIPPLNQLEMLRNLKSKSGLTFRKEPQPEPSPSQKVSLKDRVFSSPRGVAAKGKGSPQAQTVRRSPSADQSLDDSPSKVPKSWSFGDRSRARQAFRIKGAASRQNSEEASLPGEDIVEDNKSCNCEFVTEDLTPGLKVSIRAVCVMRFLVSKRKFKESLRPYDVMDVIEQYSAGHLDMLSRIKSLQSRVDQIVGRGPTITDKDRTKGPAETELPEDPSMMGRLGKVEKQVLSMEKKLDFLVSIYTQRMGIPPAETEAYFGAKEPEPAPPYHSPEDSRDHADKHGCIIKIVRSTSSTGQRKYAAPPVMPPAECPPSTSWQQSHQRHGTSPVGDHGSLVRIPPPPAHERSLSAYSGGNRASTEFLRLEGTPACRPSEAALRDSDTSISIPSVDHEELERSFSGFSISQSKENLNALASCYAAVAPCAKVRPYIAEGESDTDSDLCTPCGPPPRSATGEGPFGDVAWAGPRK
# KCNQ2 inh baseline: recorded beside KCNQ2 inh, whose call it bears; B-score; measured here: initial fluorescence intensity artifact check;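 brightness before thallium and not channel activity; 0 = typical well and far values either way flag optical interference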
# The depositor's hits bear a star; i = inactive.
KCNQ2 inh baseline,KCNQ2 inh,Structure
0.28,i,N#CC1(NC(=O)COc2ccc3ccc(=O)oc3c2)CCCCC1
-0.2,i,Cc1cc(/C=N/NC(=O)c2cccs2)c(C)n1-c1cnccn1
-0.22,i,O=C(Nc1ccc2c(c1)OCCO2)C1CCN(c2nnnn2-c2ccccc2)CC1
-2.27,i,S=C(Nc1ccccc1Cl)N(CCCN1CCOCC1)Cc1ccccn1
1.37,i,O=C(Cn1cc(C(=S)N2CCOCC2)c2ccccc21)N1CCOCC1
-1.65,i,CCOC(=O)c1ccc(S(=O)(=O)N(CCO)Cc2cc3cc(OC)c(OC)cc3[nH]c2=O)cc1
4.26,i,Clc1ccc(-c2nc(N3CCCCC3)nc3ccccc23)cc1
-3.16,i,O=c1[nH]c2cc3c(cc2cc1CN(Cc1ccccc1)Cc1nnnn1Cc1ccco1)OCCO3
-0.29,i,O=C(COC(=O)/C=C/c1ccc(F)cc1)Nc1ccccc1-c1ccccc1
-1.28,i,CC(C)OCCCNC(=O)c1cc(S(=O)(=O)N2CCc3ccccc32)cn1C
1.2,i,CC(=O)N(C)C1(c2nnnn2CCOC(=O)Nc2ccc(Cl)cc2)CCCCC1
-1.39,i,CCC(C(=O)Nc1ncccn1)(C(F)(F)F)C(F)(F)F
-2.32,i,CC(=O)N1CCN=C1SCc1cccc(Cl)c1
-0.43,i,COc1ccccc1/C=C/C1(C(=O)NC2CCCC2)CC(=O)N1c1ccc(F)cc1 (configuration not stated)
-1.3,i,N#Cc1nc(COc2ccc(Cl)cc2)oc1N1CCCC1
-1.16,i,Cc1cccc(NC(=O)/C(=C\c2ccco2)NC(=O)c2ccccc2)c1
0.85,i,COc1ccc(NC(=O)COc2cc(C)cc(C)c2)cc1S(=O)(=O)N1CCCCC1
-1,i,COc1ccccc1CN1C(=S)SC(C)(C)C1NO (configuration not stated)
0.31,i,CN(CCCNC(=O)c1cc2c(Cl)nc3ccccc3c2s1)Cc1ccccc1
1.27,i,COc1ccc(C(=O)O)cc1NC(=S)NC(=O)C(c1ccccc1)c1ccccc1

# A section from the list above:
KCNQ2 inh baseline,KCNQ2 inh,Structure
-1,i,COc1ccccc1CN1C(=S)SC(C)(C)C1NO (configuration not stated)
0.31,i,CN(CCCNC(=O)c1cc2c(Cl)nc3ccccc3c2s1)Cc1ccccc1
1.27,i,COc1ccc(C(=O)O)cc1NC(=S)NC(=O)C(c1ccccc1)c1ccccc1

# (next part)
KCNQ2 inh baseline,KCNQ2 inh,Structure
0.23,i,Brc1ccc(-c2cn3nc4c(nc3n2)CCCC4)cc1
0.8,i,CN(CC1COc2ccccc2O1)C(=S)Nc1ccccc1F (configuration not stated)
1.43,i,O=C(COc1ncnc2sccc12)N1CCN(c2ccccc2)CC1
0.15,i,CCc1ccc(N=C2NC(=O)/C(=C/c3ccc(OCC(=O)O)c(OC)c3)S2)cc1
8.22,i,COc1cc(C2C(C#N)=C(N)OC3=C2C(=O)CC(C)(C)C3)c([N+](=O)[O-])cc1OC (configuration not stated)
-3,i,CC1(C)Cc2ccccc2-c2nnc(-c3ccccc3)n21
-0.02,i,Cc1nc2ccccc2c(=O)n1/N=C/c1ccccc1F
-0.23,i,O=C(C[n+]1ccc2ccccc2c1)c1ccc(NC(=O)c2ccccc2)cc1
-2.2,i,CC(C)CCn1c(Oc2ccc(Cl)cc2)nc2c1c(=O)n(C)c(=O)n2C
-1.36,i,Cc1ccc(OCC(=O)Nn2cnc3ccccc32)cc1
-0.67,i,CCOC(=O)c1ccc(NC(=O)N2CCc3ccccc3C2)cc1
-0.85,i,CCCCNC(=O)c1sc(=S)n2c1[nH]c(=O)c1ccccc12
-2.04,i,CC(C)OP(=O)(OC(C)C)C(Nc1ccccc1)c1ccc2c(c1)OCO2 (configuration not stated)
0.08,i,O=C(/C=C\c1ccccc1)Nc1nccs1
0.56,i,Cc1nc(Nc2ccccc2)sc1C(=O)c1ccc(F)cc1
-0.25*,-8.32*,Cc1ccc2nc(-c3ccccc3)cc(C(=O)N3CCc4ccccc4C3)c2c1
-1.76,i,Cc1cc(NC(=O)c2cc3ccccc3o2)cc(C)c1OCC(=O)N1CCOCC1
0.67,i,O=C(Nc1c(C(=O)N2CCOCC2)cnn1-c1ccccc1)c1cccc(F)c1
-0.36,i,O=C(NCc1ccccn1)c1ccc(-c2ccccc2)cc1
-2.86,i,COc1cccc(C(=O)NC2=NCCS2)c1OC

# Looked up by compound from the entries so far (5):
KCNQ2 inh baseline,KCNQ2 inh,Structure
0.8,i,CN(CC1COc2ccccc2O1)C(=S)Nc1ccccc1F (configuration not stated)
0.56,i,Cc1nc(Nc2ccccc2)sc1C(=O)c1ccc(F)cc1
-0.85,i,CCCCNC(=O)c1sc(=S)n2c1[nH]c(=O)c1ccccc12
0.23,i,Brc1ccc(-c2cn3nc4c(nc3n2)CCCC4)cc1
0.15,i,CCc1ccc(N=C2NC(=O)/C(=C/c3ccc(OCC(=O)O)c(OC)c3)S2)cc1

# Next records:
KCNQ2 inh baseline,KCNQ2 inh,Structure
-0.09,i,O=C(NCCCCNC(=O)c1c(Cl)cccc1Cl)c1c(Cl)cccc1Cl
0.52,i,O=C(NCC(F)(F)F)Nc1nnc(C(F)(F)F)s1
0.04,i,O=S(=O)(c1cccs1)N1CCN(c2ccccc2F)CC1
1.75,i,COc1ccc(N(Cc2cc(=O)[nH]c3ccccc23)C(C)=O)cc1
-0.11,i,Cc1cccc(C)c1NC(=S)/C(=C(\[O-])c1cccs1)[n+]1ccccc1
0.26,i,Cc1ccc(C(=O)NNC(=O)CCC(=O)Nc2cc(C)on2)cc1
-0.04,i,COc1ccc(OC)c(S(=O)(=O)N(C)CC(=O)N2CCN(c3ccc(F)cc3)CC2)c1
-1.34,i,COC(=O)c1ccc(CSc2nc(-c3ccccc3)cs2)o1
1,i,CC(C)c1ccc(NC2CCCN(C(=O)c3ccsc3)C2)cc1 (configuration not stated)
-0.01,i,COc1ccccc1NC(=O)NN1CCCCC1
0.5,i,CCOC(=O)c1ccc(NS(=O)(=O)c2ccc(-c3coc(C)n3)cc2)cc1
-2.11,i,COc1ccc(CCNC(=O)CN2CCN(Cc3ccccc3F)C2=O)cc1OC
-0.91,i,Cc1ccc(CN(C)C(=O)c2cc(Br)c(Br)s2)o1
0.63,i,CCC(c1ccccc1)c1nc(-c2ccccn2)no1 (configuration not stated)
1.96,i,CC(C)(C)c1ccc(C(=O)NC2CCS(=O)(=O)C2)cc1 (configuration not stated)
0.45,i,Cc1ccccc1CS(=O)(=O)Cc1ccc(C(=O)NCc2ccccn2)o1
-1.87,i,CCN(C(=O)CSc1nc2nc(C)cc(C)n2n1)c1cccc(C)c1
1.86,i,CCn1c(SCC(=O)N2CCCc3ccccc32)nnc1-c1ccco1
4.81,i,O=c1c2ccccc2sc2ccc(NCCCN3CCOCC3)cc12
-1.68,i,Cc1ccc(S(=O)(=O)C2(C(=O)N3CCCCCC3)CC2)cc1
0.46,i,COC(=O)c1ccc(Cl)c(NC(=O)CSc2ncn[nH]2)c1
1.39,i,O=C(c1ccc(S(=O)(=O)c2ccccc2)cc1)N1CCc2ccccc2C1
1.28,i,Cc1ccc2cc(C)c3nnc(SCC(=O)N4CCCc5ccccc54)n3c2c1C
-0.44,i,O=C(CNCCc1ccc(Cl)cc1Cl)NCc1ccco1
-1.46,i,O=C(/C=C/c1ccco1)NCCc1ccc(F)cc1
0.65,i,O=[N+]([O-])c1cc2c(cc1/C=N/n1c(-c3ccccc3)n[nH]c1=S)OCO2
2.84,i,CC(=O)OCC(=O)Nc1cc(S(=O)(=O)N2CCCCCC2)ccc1Cl
-2.14,i,Cc1cccc(C)c1NC(=O)CNC(=O)C(Cc1ccccc1)NC(=O)c1ccccc1 (configuration not stated)
0.64,i,CCOC(=O)/C(=N\Nc1ccccc1Cl)N1CCN(c2ccccc2OC)CC1
0.56,i,O=C(Nc1ccccc1N1CCOCC1)c1cccs1
1.01,i,Cn1c(SCC(=O)c2ccc(F)cc2)nnc1-c1ccccn1
-1.83,i,O=[N+]([O-])c1cccc(/C([O-])=C(/C(=S)Nc2ccccc2F)[n+]2ccccc2)c1
0.08,i,COc1ccc(C(=O)Nc2ccc3c(c2)n(C)c(=O)n3C)cc1OC
-0.15,i,CCOC(=O)c1oc2c(CN3CCN(C)CC3)c(O)ccc2c(=O)c1-c1ccc(Br)cc1
6.18,i,CCCCCCCCCC[N+](C)(C)CC/C=C1/c2ccccc2Sc2ccc(Cl)cc21
1.91,i,CCCOC(=O)c1[nH]c2c(c1C)C(=O)CC(c1cccs1)C2 (configuration not stated)
-0.49,i,Cc1ccc(C(=O)NCC(=O)OCC(=O)c2ccc3c(c2)OCCO3)cc1C
-1.09,i,Cc1cc(C)c(S(=O)(=O)NCc2nc3nc(C)cc(C)n3n2)c(C)c1
2.29,i,Cc1c(Cl)c([N+](=O)[O-])nn1Cc1ccc(C(=O)N/N=C\c2cc(Cl)ccc2O)o1
-0.78,i,Cc1ccccc1NC(=S)N1CCCN(Cc2ccc(F)cc2)C1
0.33,i,CC(=O)OC(C(=O)NC1CCCCC1)c1cccc(F)c1 (configuration not stated)
1.76,i,O=C(NN1C(=O)/C(=C/c2cc([N+](=O)[O-])ccc2O)SC1=S)c1ccccc1O
1.87,i,Cc1cccc(NC(=O)COC(=O)c2cccc3c2C(=O)c2ccccc2C3=O)c1C
1.21,i,Cc1ccccc1NC(=O)Cn1c(NCC(C)O)nc2ccccc21 (configuration not stated)
0.19,i,COc1ccc(-n2c(C)c3c(OC)cccc(=O)c3c2C)cc1
-1.94,i,O=C(c1ccccc1)N(C1=NCCCCS1)c1ccccc1
0.46*,-6.23*,CCC1(C)Cc2ccccc2-c2c1c(=O)n(Cc1ccccc1)c1nnnn21 (configuration not stated)
-1.28,i,COc1ccc(CCCc2nnc(SCC(=O)Nc3ncc(C)s3)o2)cc1
1.8,i,Cc1cc(-c2ccco2)n(CC(=O)NCCCc2ccccc2)n1
2.75,i,COCCn1c(SCC(=O)N2CCCCCC2)nc2c(c1=O)SCC2
-1.02,i,O=c1c2c3c(sc2n2cnnc2n1Cc1ccccc1)CN(Cc1ccccc1)CC3
0.04,i,CCOc1ccccc1NC(=O)C(=O)N/N=C/c1ccc([N+](=O)[O-])cc1
-0.51,i,CC1(C)Cc2c(cnn2-c2ccccc2)-c2c1c1ccccc1n2CC(O)CCl (configuration not stated)
0.04,i,C=CCOC(=O)C1=C(C)OC(N)=C(C#N)C1c1ccc2c(c1)OCO2 (configuration not stated)
-0.51,i,Cc1ccc(CNC(=O)[C@H](C)[C@H]2C[C@]2(C)[C@H](NC(=O)OCc2ccccc2)c2ccccc2)o1
0.12,i,CCOc1ccc(NS(=O)(=O)c2ccc3c(c2)N(C(C)=O)CCO3)cc1
0.24,i,CCN(CC)CCOc1ccc(Br)cc1
1.29,i,O=[N+]([O-])c1ccc(N2CCOCC2)cc1SCc1ccco1
0.37,i,CCn1cc(C(=O)NCCCN2CC(C)CC(C)C2)c2cc(OC)c(OC)cc2c1=O (configuration not stated)
2.6,i,COc1ccc(NC(=O)c2c(NC(=O)CNCc3ccco3)sc3c2CCC3)cc1

# (continued)
KCNQ2 inh baseline,KCNQ2 inh,Structure
0.25,i,CCC1C(=O)N=C(SCC(=O)Nc2ccccc2)NC1=O (configuration not stated)
0.57,i,CCc1nnc(NC(=O)CSc2sc3c(O)cc(=O)[nH]c3c2C#N)s1
-0.03,i,N#CCC(=O)Nc1ccc(C(=O)NCCC(c2ccccc2)c2ccccc2)cc1
0.02,i,O=c1cc(CSc2ccc(Cl)cc2)nc(-c2ccccn2)[nH]1
0.12,i,CCCCNC(=S)Nc1cccc2cnccc12
-0.9,i,CC(=O)Nc1ccc(S(=O)(=O)Nc2nc3ccccc3nc2Nc2cccc(O)c2)cc1
1.31,i,CC1CN(C(=O)c2ccc3c(c2)OCO3)OC(c2ccccc2)O1 (configuration not stated)
-0.02,i,CCn1cc(C(=O)NCCCN(C)c2ccccc2)c(=O)c2cc(S(=O)(=O)N(C)C)ccc21
0.09,i,O=C1OC(/C=C/c2ccc(Cl)cc2)=NC/1=C/c1ccco1
1,i,C=CCOC(=O)C1=C[C@H](c2ccc(C(F)(F)F)cc2)C[C@H](OCCCCO)O1
1.42,i,COc1cc(NC(=S)N2CCCCC2C)c(OC)cc1Cl (configuration not stated)
-0.31,i,CCc1cc2c(=O)c(-c3cnn(-c4ccccc4)c3)c(C)oc2cc1OCC(=O)Nc1ccc(F)c(F)c1
-1.31,i,O=C(Nc1cc(S(=O)(=O)N2CCCCC2)ccc1N1CCCCC1)C1CC1
0.58,i,Cc1ccc(C(=O)COC(=O)C(C)N2C(=O)C3C4CCC(C4)C3C2=O)cc1 (configuration not stated)
-2.73,i,COC(=O)c1cc2sccc2n1CC(=O)Nc1ccc(OC)c(OC)c1OC
-3.25,i,CC(=O)N1CCN=C1SCc1ccc(C(F)(F)F)cc1
-0.95,i,CC1CCN(C(=O)c2ccc(CSc3nc4ccncc4n3Cc3ccc(F)cc3)cc2)CC1
0.13,i,CCOC(=O)CNC(=O)C1CCC(CNS(=O)(=O)c2cccc3nsnc23)CC1 (configuration not stated)
-0.17,i,CCCCc1cc(=O)oc2cc(OCc3nn[nH]n3)c(Cl)cc12
0.46,i,O=c1/c(=C\c2ccc(F)cc2)sc2n1CCCN=2
0.8,i,Cc1ccc(-n2cccn2)c(CN2CCC(CO)(CCc3ccccc3)CC2)c1
-0.12,i,COc1ccc(C2=NOC(Cn3nc(C(=O)NCc4ccc(OC(F)(F)F)cc4)cc3-c3ccccc3)C2)cc1 (configuration not stated)
-0.5,i,CCOc1ccc(NC(=O)CC2C(=O)N(c3ccccc3)C(=S)N2Cc2ccccn2)cc1 (configuration not stated)

# Some of the entries above in a different format.
smiles | KCNQ2 inh baseline | KCNQ2 inh
CCc1nnc(NC(=O)CSc2sc3c(O)cc(=O)[nH]c3c2C#N)s1 | 0.57 | i
N#CCC(=O)Nc1ccc(C(=O)NCCC(c2ccccc2)c2ccccc2)cc1 | -0.03 | i

# Some of the compounds tested; rates above refer to the full screens.
